Screening results deposited in PubChem BioAssay by National Center for Advancing Translational Sciences (NCATS).
HPGD inh: inhibitors of human 15-hydroxyprostaglandin dehydrogenase (HPGD); purified HPGD, NADH fluorescence kinetic, PGE2 substrate; Potency, µM, for inactives: at the top dose activity change, negative = inhibition, usual class: inhibitors; 150,000 compounds, 4.3% hits; AID 894; active = well fitted inhibition curve with a large enough effect (not every such curve was filed as active); inconclusive = small, poorly fitted or top-dose-only effect, or another doubt; inactive = no such curve, though single readings can be large or run the other way;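 also: top concentration of the series not given in the record; plate controls included wells without enzyme; inactives centre near -10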
Target sequence (P15428 whole entry, looked up): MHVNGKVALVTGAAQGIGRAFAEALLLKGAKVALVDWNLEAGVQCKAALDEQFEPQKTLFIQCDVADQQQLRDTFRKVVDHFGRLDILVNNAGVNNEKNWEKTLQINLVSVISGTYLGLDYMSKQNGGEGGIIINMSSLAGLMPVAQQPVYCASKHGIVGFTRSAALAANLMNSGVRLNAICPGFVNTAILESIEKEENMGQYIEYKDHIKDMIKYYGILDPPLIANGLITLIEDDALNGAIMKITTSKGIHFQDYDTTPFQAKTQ
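20 nM HPGD preincubated 15 min at room temperature with compound in 50 mM Tris-HCl pH 8, 0.01% Tween 20. Started with 1 mM NAD+ and 30 uM prostaglandin E2; NADH fluorescence (360/450 nm) read 5 times over 30-s intervals, last minus first.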
* = called active by the depositor; ? = inconclusive; & = joins results of further samples. % is scaled to controls: 0 for no effect and ±100 for the full control effect; potency is read from the fitted curve at half-maximal effect. The list is partial; the hit share may differ from the screen's.

A first look (7 entries):
SMILES	HPGD inh
CC(=O)N(CC(C)(C)CC=C(C)C)c1ccccc1	-11.7%
COc1ccccc1C(=O)N/N=C/c1ccc(Cl)s1	-23.6%
CO	-3.9%
CC(=O)c1c(C)[nH]c(C(=O)CSc2nnc(-c3cccs3)n2Cc2ccccc2)c1C	?
COc1ccc(C)cc1N(C(=O)c1ccccc1)c1nc2ccccc2s1	-28.6%
Cc1cccc(C)c1NC(=O)C(NC=O)c1ccc(Cl)cc1 (stereo not given)	-6.0%
Cc1ccc(-c2nc(SCC(=O)Nc3cc(S(=O)(=O)N4CCCCC4)ccc3Cl)n[nH]2)cc1	-20.8%

The whole of this part, repeating the preview:
SMILES	HPGD inh
CC(=O)N(CC(C)(C)CC=C(C)C)c1ccccc1	-11.7%
COc1ccccc1C(=O)N/N=C/c1ccc(Cl)s1	-23.6%
CO	-3.9%
CC(=O)c1c(C)[nH]c(C(=O)CSc2nnc(-c3cccs3)n2Cc2ccccc2)c1C	?
COc1ccc(C)cc1N(C(=O)c1ccccc1)c1nc2ccccc2s1	-28.6%
Cc1cccc(C)c1NC(=O)C(NC=O)c1ccc(Cl)cc1 (stereo not given)	-6.0%
Cc1ccc(-c2nc(SCC(=O)Nc3cc(S(=O)(=O)N4CCCCC4)ccc3Cl)n[nH]2)cc1	-20.8%
C=CCC(O)(CCN1CCCCC1)c1ccccc1 (stereo not given)	-17.1%
O=C(O)c1ccc(COc2ccc(Cl)cc2)o1	-12.5%
CN1CCC2(CC1)NC(=O)NC2=O	0.3%
CCOC(=O)c1nn(-c2ccccc2)c(C#N)c1NC(=O)c1nn(CC)cc1Br	?
O=S(=O)(c1ccc(F)cc1)N1CCN(c2ccccc2)CC1	?
O=C(COn1nnc2ccc(C(F)(F)F)cc21)Nc1nnc(-c2ccccc2)o1	-2.3%
CC1CCC2C(=O)N(c3ccccc3OC(=O)c3ccccc3)C(=O)C2C1 (stereo not given)	-7.7%
COc1ccc(C(=O)NCC(O)COc2ccc(C(C)(C)C)cc2)cc1[N+](=O)[O-] (stereo not given)	-3.6%
O=C1CCC(=O)N1OCCCOc1ccccc1	-9.7%
Cc1occc1C(=O)Nc1cc(C(F)(F)F)ccc1Cl	-4.5%
N=c1ccn2c(n1)O[C@H]1[C@H](O)[C@@H](CO)O[C@H]12	-3.8%
COc1cccc(C2=NOC(C(=O)Nc3cccnc3)C2)c1 (stereo not given)	-12.8%
CCCn1c(C)cc(/C=C(\C#N)C(=O)OCC(=O)Nc2cccc(OC)c2)c1C	?
Cc1cnc(C(=O)Nc2nc(-c3ccccc3)cs2)cn1	-12.5%
O=C(NCc1ccccc1F)c1ccc(S(=O)(=O)Nc2cccc(C(F)(F)F)c2)cc1	-15.7%
CC1CN(c2oc(-c3cccs3)nc2C#N)CC(C)O1 (stereo not given)	?
N#C/C(=N\O)c1nc(-c2ccccc2)cs1	-26.0%&-11.5%
Cc1ccccc1-n1ccnc1SCC(=O)O	-2.7%
CCn1c(=O)c(C(=O)CN(C)Cc2cccc(OC)c2OC)c(N)n(Cc2ccccc2)c1=O	-8.8%
CCN(CC)S(=O)(=O)c1ccc2c(c1)c(=O)c(C(=O)NCc1cccs1)cn2C	-11.7%
COc1ccccc1OCC(=O)Nc1cc(S(=O)(=O)N2CCCCC2)ccc1N1CCCCC1	-7.4%
CCCn1c(SCC(=O)Nc2cc(Cl)ccc2OC)n[nH]c1=O	-23.5%
CCN1CCCc2cc(CN(CCN3CCOCC3)C(=O)Nc3ccc(C)c(C)c3)ccc21	-8.4%
NC(=O)Nc1ccc(F)cc1	-11.9%
Cc1ccc(C(=O)Nc2cccc(C(=O)O)c2)cc1S(=O)(=O)N1CCCCC1	-11.4%
CCN1CCCC1CNS(=O)(=O)c1cc(Br)cc2c1N(C(=O)C1CC1)CC2 (stereo not given)	5.2%
CCOC(=O)C1=C(c2ccccc2)Nc2ncnn2C1c1cc(OC)cc(OC)c1OC (stereo not given)	0.6%
CNC(=O)C(Sc1nc(C)nc2c1oc1ccccc12)C(C)=O (stereo not given)	-23.9%
Cc1cccc(-n2c(C)cc(C=C3C(=O)c4ccccc4C3=O)c2C)c1	-13.8%
CCCCC(=O)Nc1cccc(NC(=O)c2ccc(Br)o2)c1	-19.5%
C=CCc1ccc(OCCCOc2ccc(C)c(C)c2)c(OC)c1	-12.5%
COCCNCCCOc1ccc(Br)cc1Cl	-3.0%
CCOC(=O)C1(C)NC(c2cc(OC)c(OC)c(OC)c2)C2C(=O)N(CC)C(=O)C21 (stereo not given)	-1.6%
S=C(c1ccccc1)N1CCCc2ccccc21	-2.5%
COC(=O)c1cc2ccsc2n1Cc1nc(-c2cccc(Cl)c2)oc1C	-3.9%
CCOC(=O)C1=NN(N=O)C2(CC(=O)N(c3cc(C)cc(C)c3)C2=O)C1 (stereo not given)	-16.0%
CNc1nc(C)nc(-n2nc(C)cc2C)n1	-6.5%
C=CCNc1sc(C(=O)c2cccs2)c(N)c1C#N	-6.7%
Cc1cc(C)nc(N/C(=N\S(=O)(=O)Cc2ccccc2)Nc2ccccc2Br)n1	-6.1%
c1csc(-c2nnsc2-c2nc3ccccc3[nH]2)c1	?
CCCCn1nnnc1NCc1ccc(N2CCCC2)cc1	-19.0%
CCCCCCCC/C=C\CCCCCCCC(=O)NCCCC(=O)O	-0.8%
COc1ccc(C)cc1NC(=O)CSc1nnc(-c2ccc(OC)c(OC)c2)n1N	-9.2%
Cc1cc(Nc2cccc(F)c2)nc(NCc2ccccc2)n1	-10.2%
CCc1nnc(SCc2ccc(OC)c(Br)c2)n1N	-24.4%
CS(=O)(=O)N1CCc2ccccc2C1	-13.6%
CC(C)c1ccc(NC(=O)NC2CCCCC2)cc1	-14.2%
Cc1ccc(C(=O)NCC(=O)OCC(=O)c2c(N)n(C)c(=O)n(C)c2=O)s1	-0.1%
COc1ccc(/C=C/C(=O)OCC(=O)c2c(N)n(C)c(=O)n(C)c2=O)cc1	-20.7%
COc1ccc(N2C(=O)C(=O)/C(=C(/O)c3ccc(C)cc3)C2c2cccnc2)cc1 (stereo not given)	-14.8%
O=C(c1ccc(Cl)nc1)N1CCc2ccccc2C1	7.94µM*
Cc1ccc(S(=O)(=O)CC2CSc3nnc(C)c(=O)n32)cc1 (stereo not given)	2.3%
Cc1ccc(NC(=O)c2c(-c3ccccc3)noc2C)nc1	-2.0%

Pulled by compound from the list above (two):
SMILES	HPGD inh
COc1ccc(C)cc1NC(=O)CSc1nnc(-c2ccc(OC)c(OC)c2)n1N	-9.2%
Cc1cc(C)nc(N/C(=N\S(=O)(=O)Cc2ccccc2)Nc2ccccc2Br)n1	-6.1%

Other results:
SMILES	HPGD inh
COCCNC(=O)CN(C(=O)CCC(=O)Nc1ccccn1)c1ccc(F)cc1	-5.0%
O=C1CC(N2CCN(c3nc4ccccc4s3)CC2)C(=O)N1c1ccc(F)cc1 (stereo not given)	-11.6%
N#CC1(Cc2ccc([N+](=O)[O-])cc2)c2ccccc2C=CN1C(=O)c1ccccc1 (stereo not given)	-9.4%
CCCCn1cnc2c1c(=O)n(C)c(=O)n2C	-14.2%
Cc1nc([N+](=O)[O-])c(N2CCN(C)CC2)n1Cc1ccccc1	-13.3%
COc1ccc(NCC(=O)Nc2ccc(Cl)cc2C)c(OC)c1	7.94µM*
O=C(CSC1=Nc2ccccc2C2=NC(CC(=O)NCc3ccco3)C(=O)N12)NCC1CCCO1 (stereo not given)	?
O=C(CCN1C(=O)c2ccccc2C1=O)Oc1ccc2ccccc2c1	-7.7%
Cc1nccn1-c1ccc(C(F)(F)F)cc1NC=O	-11.4%
O=C(NC1CCN(Cc2ccccc2)CC1)C1COc2ccccc2O1 (stereo not given)	2.1%
COc1cccc(C(=O)NCc2cccnc2)c1	-11.3%
CCC(C)(C(=O)NC1CCCC1)N(C(=O)CC1NC(=O)NC1=O)c1ccc(C)cc1 (stereo not given)	-2.2%
Cc1c(C(=O)NCCc2ccc3c(c2)OCCO3)oc2ccccc12	-9.8%
Cc1cc(Cl)ccc1OCc1nc(-c2ccc(O)cc2)n[nH]1	-18.0%
CN(C)c1ccc(C(CC(=O)c2ccccc2)C2CCCCC2=O)cc1 (stereo not given)	2.0%
COc1ccc(CNc2nc(-c3ccoc3)nc3ccccc23)c(OC)c1	-18.1%
O=C(CN1C(=O)CCSc2ccccc21)Nc1ccc2c(c1)OCO2	-5.3%
Cc1ccc(OCCn2cnc3c(N)ncnc32)cc1	-12.3%
O/N=C1/CC/C(=N\O)c2nn(-c3ccccc3)nc21	-16.1%
COc1ccc(N2C(=O)CC(N3CCN(S(=O)(=O)c4c(F)cccc4F)CC3)C2=O)cc1OC (stereo not given)	-17.5%
Cn1cc(/C=C(\C#N)C(=O)Nc2ncc(Cc3cccc(Cl)c3)s2)c2ccccc21	-12.6%
Cc1ccc(C(=O)NCCSc2ccc(Cl)cc2)cc1S(=O)(=O)Nc1ccccc1	-22.1%
CCOc1cc(C)c(S(=O)(=O)Nc2ccc(Cl)cn2)cc1C	-12.3%
C=CCOC(=O)C1=C(C)OC(N)=C(C#N)C1c1ccc(OC)c(CSc2ccccn2)c1 (stereo not given)	-2.0%
O=S(=O)(c1ccccc1)N1CCC2(CC1)CN(c1ccccc1)C2	-7.7%
COc1ccc(C(=O)/C=C\c2ccc(NC(=O)c3cccs3)cc2)cc1	2.5%
O=C(NCCN1C(=O)S/C(=C\c2cccs2)C1=O)[C@H](Cc1ccccc1)N1C(=O)c2ccccc2C1=O	-9.4%
COc1ccc(/C=C(/NC(=O)c2ccccc2)c2nc3ccc(Cl)cc3[nH]2)cc1OC	-14.3%
Cc1cc(=O)oc2cc(OCCSc3nnc(-c4ccccc4)o3)ccc12	?
CCc1c2c(nc3cccc(OC)c13)OC(CC)C2 (stereo not given)	?

Arranged by the number under HPGD inh (low to high): some entries from above.
Molecule | HPGD inh
Cc1ccc(C(=O)NCCSc2ccc(Cl)cc2)cc1S(=O)(=O)Nc1ccccc1 | -22.1%
COc1ccc(CNc2nc(-c3ccoc3)nc3ccccc23)c(OC)c1 | -18.1%
COc1ccc(/C=C(/NC(=O)c2ccccc2)c2nc3ccc(Cl)cc3[nH]2)cc1OC | -14.3%

Next part
SMILES	HPGD inh
COc1ccc(N(C(=O)COc2ccc(C)cc2)S(=O)(=O)c2ccc(C)cc2)cc1	-7.8%
Cc1cc(C(=O)NC(=S)Nc2cccc(NC(=O)C(C)C)c2)ccc1[N+](=O)[O-]	-15.3%
Cc1ccc(C(=O)c2coc3c2C(=O)C(=O)c2ccccc2-3)cc1	?
COCC(C)N=CC1=C(O)CC(C)(C)CC1=O (stereo not given)	-11.0%
COc1ccc2ncc(OC(C)=O)cc2c1	?
CCC1=C(OC(=O)N(CC)CC)N2C(=O)OC(=NCCc3c[nH]c4ccccc34)[C@]2(Cc2ccccc2)[C@H]2C1=CC[C@H]1C(=O)N(CC(=O)OC)C(=O)[C@H]12	-18.6%
COc1ccc(C2CC(=O)N3CN(c4ccc(C)c(Cl)c4)CSC3=C2C#N)cc1OC (stereo not given)	?
Cc1ccc(-n2[nH]c(C)c(C=Nc3ccc(S(=O)(=O)N4CCOCC4)cc3)c2=O)c(C)c1	-26.6%
COc1ccc(/C=C/C(=O)N2CCCc3ccccc32)cc1	11.2µM*
CN1C(=O)C(Cc2c[nH]c3ccccc23)NC1=S (stereo not given)	-19.1%
O=C(O)CSc1n[nH]c(=O)[nH]c1=O	-4.0%
S=C(Nc1ccccc1)N1CCCCC1	-4.8%
CCCC(=O)Nc1c2c(nn1-c1ccc(OC)cc1)CS(=O)C2 (stereo not given)	3.4%
CCC(C)NC(=O)c1[nH]c(C)c(C(=O)OC)c1C (stereo not given)	-14.9%
COc1ccc(C(=O)N2CCN(c3nc4cc(C)ccc4cc3C#N)CC2)c(OC)c1	?
CCOC(=O)c1ccc(-c2ccc(-c3cc(=O)oc4cc(OC)c(OC)c(OC)c34)cc2)cc1	-5.8%
Cc1cc(O)c(C(C)C)cc1CN1CCCCC1	-2.9%
O=C(Nc1ccccn1)c1nc(-c2ccccc2)n(-c2ccccc2)n1	-9.7%
Cc1ccc(C(=O)CSc2nc3ccccc3c(=O)n2-c2ccccc2)s1	-5.3%
O=C1C(C2=C(O)c3ccccc3C2=O)=Nc2ccccc21	-18.1%
NC(=O)CSCc1cccc(Br)c1	-9.3%
CCCOC(=O)C1=C(C)NC2=C(C(=O)CCC2)C1c1ccc(N(C)C)cc1 (stereo not given)	-6.9%
CC1(C)CC(=O)C(C=NCC2CCN(C(=O)Nc3ccc(Cl)c(Cl)c3)CC2)=C(O)C1	-20.1%
CCC(=O)Nc1cc(-c2nn3c(C)nnc3s2)ccc1C	0.5%
OC(C#CCN1CCCC1)(c1ccccc1)c1cccc(F)c1 (stereo not given)	-9.3%
CCn1nnc(-c2ccccc2NC(=O)c2ccc(-n3cnnn3)cc2)n1	?
C=C1c2cccc(C(F)(F)F)c2O[C@H](C(=O)OCC)[C@@H]1CCCCCC	-0.2%
CCOc1ccc(N2C(=O)CC(Sc3nc(C)cc(C)n3)C2=O)cc1 (stereo not given)	-0.3%
COc1ccc(CC(=O)N2CCN(C(=O)Cc3ccc(OC)cc3)CC2)cc1	-1.0%
Cc1nc2ccc(NC(=O)N(C(C)C)C(C)C)cc2s1	-12.9%
C=CC(C1=CC(=O)C(OC)=C(OC)C1=O)c1ccccc1 (stereo not given)	20µM*
CSc1ncccc1C(=O)OCc1ccccc1	-8.8%
COc1ccc(-c2cn3cc(Cl)ccc3n2)cc1OC	?
O=C(O)c1ccc(CSCc2c(F)cccc2Cl)o1	-17.2%
CCC(C)NS(=O)(=O)c1ccc(S(=O)(=O)N(CCc2ccc(OC)c(OC)c2)Cc2cccs2)cc1 (stereo not given)	-13.5%
Cc1cccnc1NC1(C(F)(F)F)N=C(c2ccccc2)NC1=O (stereo not given)	-7.8%
